Screens as filed in PubChem BioAssay.
A1 inh = caspase 3/7 activation in MEF A1-2A-BIM cells, primary screen, A1 inhibitor project, cell-based, luminescence, HTS | Caspase-Glo 3/7 luminescence, 3 h; percent of clofoctol response, vehicle zero | caspase activation, % (concentration not given with the values) | 330,000 compounds, 0.066% hits | AID 2462, 2010;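 active means over half of replicate activation scores above 10%, or exactly half above 10 with the replicate mean above 10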;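 further: wells of about 30 µL received 50 nL stock; many hits fall short of the cut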
T cruzi repl = inhibitors of intracellular T. cruzi growth, primary screen, luminescence, NIH3T3 host cells | T. cruzi beta-gal in NIH3T3, 90 h | inhibition, % (test concentration not listed) | 300,000 compounds, 1.4% hits;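 active means mean inhibition across valid replicates above about 55%, limit read from the data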;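 further: signal also drops with host cell toxicity which is not excluded here; 0% = plate median of DMSO wells and 100% = zero luminescence signal; higher percent means less beta-gal luminescence so fewer parasites; stock transfer was 50 nL into about 50 µL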
AF4-AF9 inh = inhibitors of AF4 peptide binding to AF9, primary screen, biochemical, AlphaScreen, biotin-AF4 peptide, FLAG-AF9, single point. Protein AF-9 (Homo sapiens), P42568. inhibition, % at 10 µM. 350,000 compounds, 0.47% hits;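 active means every replicate reaching a set inhibition limit, whatever the replicate mean, cut at about 25% in these data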;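 further: 0% = plate neutral control median and 100% = total signal loss; the record names both 10 and 1 µM as test concentration; the first replicate is given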
Target sequence (P42568 whole entry, looked up): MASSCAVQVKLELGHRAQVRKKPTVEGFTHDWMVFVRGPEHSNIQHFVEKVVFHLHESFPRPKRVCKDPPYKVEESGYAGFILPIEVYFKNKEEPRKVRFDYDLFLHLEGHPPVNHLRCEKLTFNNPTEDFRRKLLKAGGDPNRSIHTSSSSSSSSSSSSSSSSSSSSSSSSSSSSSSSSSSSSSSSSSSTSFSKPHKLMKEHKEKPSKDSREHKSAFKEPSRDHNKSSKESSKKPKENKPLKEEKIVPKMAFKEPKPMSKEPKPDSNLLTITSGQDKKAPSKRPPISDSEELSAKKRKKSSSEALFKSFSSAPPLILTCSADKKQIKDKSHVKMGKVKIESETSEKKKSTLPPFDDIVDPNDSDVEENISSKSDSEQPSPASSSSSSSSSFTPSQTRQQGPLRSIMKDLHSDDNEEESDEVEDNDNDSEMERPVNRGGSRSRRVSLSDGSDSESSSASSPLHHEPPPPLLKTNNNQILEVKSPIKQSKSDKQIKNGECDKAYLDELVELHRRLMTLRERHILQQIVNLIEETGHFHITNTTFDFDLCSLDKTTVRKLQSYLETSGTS
E coli growth = E. coli growth inhibition, primary screen, OD600; Escherichia coli growth, 23 h; active compounds read low; OD600 absorbance (concentration not given with the values); 330,000 compounds, 0.21% hits;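 active means OD600 absorbance below the run mean of sample wells minus 3.6 SD, in any replicate, cut at about 0.56 in these data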;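 further: stock transfer was 300 nL into about 60 µL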
Beta apoptosis = inhibitors of cytokine-induced beta cell apoptosis, primary screen, luminescence; INS-1E cytokine-induced death, ATP luminescence, 48 h; percent of positive-control rescue, neutral wells zero; protection from apoptosis, % (concentration not given with the values); 300,000 compounds, 0.8% hits; AID 435005, 2010;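 active means all replicates at 75% or more, or half of them and the mean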;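 further: 0% = cytokine-treated negative control wells and 100% = positive control rescue; higher means more ATP so stronger rescue from cytokine killing; wells of about 40 µL received 100 nL stock; the first replicate is given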
UCH37 DUB inh = inhibitors of human UCH37 deubiquitinase, primary screen, biochemical, Ub-AMC cleavage, fluorescence; Ubiquitin carboxyl-terminal hydrolase isozyme L5 (Homo sapiens), Q9Y5K5; purified proteasome/UCH37; inhibition, % (concentration not given with the values); 330,000 compounds, 0.33% hits;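 active means mean of two replicates above 20%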;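 further: 0% = compound-free wells with enzyme and 100% = wells lacking proteasome; stock transfer was 100 nL into about 20 µL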
Target sequence (Q9Y5K5 whole entry, looked up): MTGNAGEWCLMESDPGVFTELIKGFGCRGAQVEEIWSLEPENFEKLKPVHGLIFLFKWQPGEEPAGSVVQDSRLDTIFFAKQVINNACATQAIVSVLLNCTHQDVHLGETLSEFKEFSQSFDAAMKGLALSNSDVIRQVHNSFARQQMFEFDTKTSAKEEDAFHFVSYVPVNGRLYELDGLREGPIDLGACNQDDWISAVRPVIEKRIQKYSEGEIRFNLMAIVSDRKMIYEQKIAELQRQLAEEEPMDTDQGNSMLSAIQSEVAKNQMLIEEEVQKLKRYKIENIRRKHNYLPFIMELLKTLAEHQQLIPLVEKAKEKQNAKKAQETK
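Assay system: Proteasome-bound UCH37. Buffer or medium: pH 7.4 Tris-HCl (50 mM) with ovalbumin, ATP-MgCl2, DTT. Incubation: 30 min preincubation with enzyme, 25 min cleavage at room temperature. Measured by: fluorescence, ex 355 nm, em 460 nm. Read-out basis: percent inhibition. Control set: wells without proteasome as full block, compound-free enzyme plus substrate as uninhibited.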
FGF22 binding = binders of human FGF22 protein, primary screen, FGF22 synaptogenesis inhibitor project, biophysical, thermal shift, single point | Fibroblast growth factor 22 (Homo sapiens), Q9HCT0 | recombinant FGF22 thermal shift, SYPRO orange fluorescence; percent of sucrose octasulfate shift, DMSO zero | calls only at 9.99 µM | 340,000 compounds, 1.5% hits | AID 651658, 2012;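 active means melting point raised past a set limit in the mean and every replicate; three in four hits are not shown here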
rRNA inh HTS = reduced GFP signal of wild-type E. coli, primary screen, bacterial rRNA inhibitor project, GFP/RFP fluorescence, OD600, single point; E. coli WT GFP vs humanized-ribosome RFP mutants, 24 h; active compounds read low; DMSO median 0, no signal -100; AID 720706, 2013; GFP signal change (wild-type ribosome), % (test concentration not listed); 350,000 compounds, 1.6% hits;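 active means significant combined selectivity score with lowered wild-type GFP, culture density cut under 30%, mutant RFP and density less affected; inactive means any of these conditions unmet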; further: one replicate is shown; some compounds called inactive have numbers as strong as hits
rRNA inh HTS OD600 = recorded beside rRNA inh HTS, whose call it bears; OD600 change, %; measured here: OD600 growth;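 optical density of the mix in the first replicate; 0 = DMSO median and -100 = no signal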
rRNA inh HTS RFP = further read-out of rRNA inh HTS, marked with its call; RFP signal change, %; measured here: RFP humanized mutant strains;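 first replicate; 0 = DMSO median and -100 = no signal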
* marks the source's active call; other numbers are inactive results; i = inactive; / = no result given. Some of the compounds tested; the hit share may differ from the screen's.

Molecule,A1 inh,T cruzi repl,AF4-AF9 inh,E coli growth,Beta apoptosis,UCH37 DUB inh,FGF22 binding,rRNA inh HTS,rRNA inh HTS OD600,rRNA inh HTS RFP
NC(=S)NNC(=O)c1cccc(Cl)c1,0.3,-8,-1.6,0.66,-6,-2.2,/,-38,-34,-6.6
CCc1ccc2[nH]c(=O)c(C(c3nnnn3CC3CCCO3)N3CCCc4ccccc43)cc2c1 (centres undefined),1.8,-7,/,0.72,-7,1.8,/,/,/,/
COCCNC(=O)c1ccc(CS(=O)(=O)c2ccccc2OC)o1,0.1,-7,0.3,0.68,-2,0.9,i,10,16,0.2
CCCCn1nc(C(=O)Nc2nc3c(s2)CCCC3)c2ccccc2c1=O,0.8,56*,2.5,0.75,6,-2.0,i,/,/,/
Cc1ccc(NC(=O)CN2CCC(NC(=O)Cc3ccccc3)CC2)cc1C,0.8,2,-1.9,0.69,-2,2.4,i,9,5,-2.8
O=C(c1ccc(-c2nnc(Nc3cccc(Cl)c3)c3ccccc23)cc1)N1C[C@H]2C[C@H](C1)c1cccc(=O)n1C2,0.2,34,/,0.76,16,0.7,/,/,/,/
c1ccc(-n2nnnc2Sc2n[nH]c(-c3ccncc3)n2)cc1,-0.5,-20,/,0.65,-3,-1.4,/,/,/,/
Cc1nc2c(C)cccn2c(=O)c1NC(=O)c1cccs1,-0.6,-13,-1.2,0.61,-9,8.1,i,2,15,-1.9
CCCCC(CC(O)COCC(C)C)C(=O)NNC(=S)Nc1ccccc1 (centres undefined),1.0,0,-3.2,0.68,1,2.5,i,10,4,2.3
CC(C)[C@H](NC(=O)c1ccc(F)cc1)C(=O)NC1=NCCS1,-1.7,-18,-2.3,0.71,-13,4.7,i,4,11,2.6
CCN(CC)CCNC(=O)c1ccc(NC(=O)c2cccc(-n3cnnn3)c2)cc1,0.0,-7,0.3,0.68,-3,1.0,i,7,9,-1.6
OC[C@@H]1[C@@H](c2ccc(Cl)cc2)C(c2cccc(Cl)c2)=NN1c1ccccc1,/,/,-93,0.71,/,i,i,10,4,9.8
COc1ccccc1NC(=O)NCCN1CCN(C(=O)Nc2ccccc2OC)CC1,0.0,-10,-1.4,0.7,2,3.1,i,9,13,1.2
CCc1ccc2c(c1)C(=O)CCC2,/,/,-0.4,0.66,/,-0.2,i,6,13,-2.7
CCn1ncc(Br)c1C(=O)Nc1ccc(F)cc1F,-0.1,-9,3.2,0.66,-1,2.3,/,0,-5,-2.2
CC1(C)CC(=O)C(C=NCCN2CCN(C(=O)c3ccc(Br)cc3)CC2)=C(O)C1,0.1,15,/,0.71,-9,3.3,/,/,/,/
COC(=O)[C@@]12CCCN1[C@H](c1ccc(-c3ccc4c(c3)OCO4)c(OC)c1)[C@H]1C(=O)N(C)C(=O)[C@H]12,0.8,-4,6.3,/,2,1.4,i,2,8,-4.9
O=c1oc2ccccc2cc1-c1nc(-c2ccccc2)no1,-0.2,-13,/,0.68,-1,-8.1,/,/,/,/
COCCNC(=S)NC1CC2CCCC(C1)N2Cc1cccs1 (centres undefined),0.5,-8,2.2,0.61,14,2.6,i,4,3,2.0
Fc1ccc(-[n+]2nc(Nc3ccccc3)sc2-c2c3ccccc3cc3ccccc23)cc1,0.1,49,/,0.69,67,4.8,i,-55,-69,-15
CN(C)CCCNC(=S)N1CCC(c2nc3ccccc3[nH]2)CC1,1.5,-6,0.0,0.67,1,2.8,i,11,10,2.4
Cc1ccc(NC(=O)c2cc(S(=O)(=O)N(C)C)ccc2N2CCCC2)cc1F,-1.1,11,-2.4,0.72,-8,3.6,i,5,-2,3.5
CN(C)c1ccc(C(=O)Nc2ccc(S(=O)(=O)NC3=NCCCCC3)cc2)cc1,0.5,9,/,0.67,-3,-2.3,/,/,/,/
CC(=O)NCCSCCNC(C)=O,-1.0,2,/,0.7,0,1.4,/,/,/,/
NC(=O)C1CC=CCC1C(=O)OCC(Cl)=C(Cl)Cl (centres undefined),0.4,2,/,0.73,3,-1.4,/,/,/,/
Cc1cnc(NC(=O)CSc2nnc(-c3ccc(Cl)cc3Cl)n2N)s1,0.5,/,/,0.74,-6,1.7,/,/,/,/
COc1cc2c(cc1OC)C(C)N(C(=O)C1=NN(c3cccc(C)c3)C(=O)CC1)CC2 (centres undefined),0.0,3,0.5,0.66,-3,-2.0,i,-5,-9,-2.1
O=C(NC1CCCCC1)C(c1cccs1)N(C(=O)c1ccccn1)c1ccccc1 (centres undefined),-1.0,11,-0.9,0.71,-6,3.4,i,10,8,-0.1
O=C(O)c1ccccc1-c1ccccc1C(=O)NCc1ccccc1Cl,0.2,-8,-2.2,0.67,/,0.2,i,-13,-10,-1.9
Cc1ccn2cc(-c3cccc(NC(=O)C(C)C)c3)nc2c1,-1.1,0,0.7,0.63,16,-7.0,i,0,-2,-2.7

Already shown: 7 of the compounds above.
Molecule,A1 inh,T cruzi repl,AF4-AF9 inh,E coli growth,Beta apoptosis,UCH37 DUB inh,FGF22 binding,rRNA inh HTS,rRNA inh HTS OD600,rRNA inh HTS RFP
CC(=O)NCCSCCNC(C)=O,-1.0,2,/,0.7,0,1.4,/,/,/,/
NC(=O)C1CC=CCC1C(=O)OCC(Cl)=C(Cl)Cl (centres undefined),0.4,2,/,0.73,3,-1.4,/,/,/,/
Cc1cnc(NC(=O)CSc2nnc(-c3ccc(Cl)cc3Cl)n2N)s1,0.5,/,/,0.74,-6,1.7,/,/,/,/
COc1cc2c(cc1OC)C(C)N(C(=O)C1=NN(c3cccc(C)c3)C(=O)CC1)CC2 (centres undefined),0.0,3,0.5,0.66,-3,-2.0,i,-5,-9,-2.1
O=C(NC1CCCCC1)C(c1cccs1)N(C(=O)c1ccccn1)c1ccccc1 (centres undefined),-1.0,11,-0.9,0.71,-6,3.4,i,10,8,-0.1
O=C(O)c1ccccc1-c1ccccc1C(=O)NCc1ccccc1Cl,0.2,-8,-2.2,0.67,/,0.2,i,-13,-10,-1.9
Cc1ccn2cc(-c3cccc(NC(=O)C(C)C)c3)nc2c1,-1.1,0,0.7,0.63,16,-7.0,i,0,-2,-2.7

Carrying on.
Molecule,A1 inh,T cruzi repl,AF4-AF9 inh,E coli growth,Beta apoptosis,UCH37 DUB inh,FGF22 binding,rRNA inh HTS,rRNA inh HTS OD600,rRNA inh HTS RFP
COc1ccc(S(=O)(=O)N2CCN(Cc3ccc4c(c3)OCO4)CC2)cc1F,-0.2,-6,-2.3,/,0,/,i,-8,2,-5.2
NC(=O)c1cnn(Cc2ccc(Cl)cc2)c1N,-0.4,-19,/,0.71,-9,2.5,/,/,/,/
CC1CCN(C(=O)CCc2ccc(Oc3cc([N+](=O)[O-])cc([N+](=O)[O-])c3)cc2)CC1,-1.2,46,5.5,0.71,2,1.7,i,/,/,/
COc1ccccc1OCc1nc2ccccc2s1,-6.5,-10,/,0.76,0,-0.1,/,/,/,/
COc1ccc(N2CCN(C(=O)c3cc4c(s3)CCCCC4)CC2)cc1,0.0,/,-5.4,0.72,0,2.4,i,-1,-42,13
Cc1ccc2nc(NC(=O)CN3CCN(c4ccccn4)CC3)sc2c1,0.2,12,0.0,0.68,-14,-0.4,i,-3,-7,-0.1
Cc1ccc(-c2nn(-c3ccccc3)cc2C2SCC(=O)N2Cc2ccccc2)o1 (centres undefined),0.0,29,10,0.74,2,2.9,i,5,5,14
CCOCCCNC(=O)C(c1ccc(C)cc1)N(Cc1cccs1)C(=O)c1ccccc1O (centres undefined),0.4,5,0.7,0.65,-3,2.0,i,-29,-37,-3.6
COC(=O)c1ccc(C(=O)Nc2nnc(-c3cccnc3)o2)cc1,0.2,-18,-0.7,0.66,7,-0.5,i,10,6,-6.4
CC(C)N1CC(COc2ccc(Cl)cc2Cl)OC1=O (centres undefined),0.9,-1,-2.5,0.65,-8,2.5,i,-3,-8,1.6
CC12CCC(C(N)C1=O)C2(C)C (centres undefined),/,/,-3.4,0.67,/,0.4,i,/,/,/
CCCC(CCC)C(=O)Nc1cccc(-c2cn3c(n2)SCC3)c1,2.3,6,4.9,0.73,-2,2.0,i,-4,-6,-2.3
COCCNC(=O)c1ccccc1NS(=O)(=O)c1ccc(C)c([N+](=O)[O-])c1,-0.2,0,0.8,0.74,-1,5.5,i,/,/,/
Clc1ccc(-c2nnc(SCc3nc(-c4ccccc4)no3)o2)cc1,0.7,1,-0.6,0.71,/,2.5,i,8,14,2.1
Cc1ccc(OCc2cc(C(=O)NCC(C)c3ccccc3)no2)cc1C (centres undefined),-0.8,3,-1.5,0.73,/,2.5,i,-6,-14,-4.1
Cc1nc(C(=O)NNC(=O)c2cccc(Cl)c2)c(C(F)(F)F)o1,-0.5,-14,-3.6,0.67,1,3.0,i,-27*,-14*,-6.5*
Cc1cccc(N(C(=O)CCC(=O)Nc2cc(C)on2)C(C(=O)NC2CCCC2)c2ccc(C)o2)c1 (centres undefined),0.0,11,/,0.68,-5,1.8,/,/,/,/
COc1ccc(-c2cn(-c3ccc(Br)cc3)c3[n+]2CCS3)cc1,-0.5,29,-6.4,0.73,57,3.7,i,-38,-51,-15
